# Anaer choline gr = blocks anaerobic gram-negative growth on choline; Gram-negative bacterium anaerobic choline minimal medium, absorbance growth; hits give low values; many inactives read as strong as hits in the columns shown; hit rate 0.2% among 55,000; calls only;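 active = growth z-score on choline under -2 at 7 or 20 h with little or no fall on glycerol, limits in tiers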;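 also: stock transfer was 300 nL into about 50 µL; the organism is E. coli; final concentration not given here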
# Anaer choline gr early = recorded beside Anaer choline gr, whose call it bears; z-score; measured here: choline growth z-score, timepoint 1;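 score of optical density at 7 h as mean of two plates; lower means less growth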
# * hit, by the source's call; i = inactive; & = joins results of further samples.
SMILES,Anaer choline gr,Anaer choline gr early
O=S(=O)(NC(c1ccc(Cl)cc1)c1nnc(-c2ccccc2)o1)c1ccc(F)c(Cl)c1 (configuration not stated),i,0.48
COc1ccc(OCC(=O)Nc2nc3ccc(OC)cc3s2)cc1,i,0.96
CCC(C)NC(=O)N1CCCC1c1cc(C(C)C)no1 (configuration not stated),i,-0.29
O=C(CN1CCN(Cc2ccc(F)cc2Cl)S1(=O)=O)NC1CCCC1,i,-0.47
O=C(NC1CCCC1)C1CCCCN1S(=O)(=O)c1ccc(Cl)cc1 (configuration not stated),i,-0.16
CN(C(=O)c1ccc(N2C(=O)C(C)(C)CS2(=O)=O)cc1)C1CCS(=O)(=O)C1 (configuration not stated),i,0.11
CC(NC(=O)C1CCc2nc(N3CCOCC3)ncc2C1)c1ccco1 (configuration not stated),i,0.71
Cc1cccc(-n2nc(C(=O)N3CCCC3)nc2-c2ccccc2)c1,i,-1.82
COc1cc(C2C3=C(CC(c4ccc(Cl)cc4)CC3=O)Nc3onc(C)c32)ccc1O (configuration not stated),i,-0.09
CNc1oc(-c2ccc(S(=O)(=O)N3CCCC3)cc2)nc1C#N,i,0.93
COc1ccc(NC(=O)c2ccnc(Nc3ccc(C(C)C)cc3)c2)cc1,i,-0.54
CC(C)NC(=O)C1CCN(C(=O)c2nn(C)c3c2CN(C(=O)C(C)C)CC3)CC1,i,0.08
CCOc1ccc(N2C(=O)CC(c3ccc(OC)c(OC)c3)CC2=O)cc1,i,-0.31
Cc1nn(-c2ccccc2)c2c1CN(C(=O)Nc1ccc3c(c1)OCO3)C(c1ccccc1)c1cccn1-2 (configuration not stated),i,0.71
CCCCn1c(SCC(=O)O)nc2c1c(=O)[nH]c(=O)n2C,i,-0.32
CC(C)Cc1csc(-c2csc(S(=O)(=O)NCc3ccc(F)cc3)c2)n1,i,0.67
O=S(=O)(Nc1cccn2c(C3CCC3)nnc12)c1ccc2c(c1)CCCC2,i,-1.72
Cc1cc(OCc2nc(CC(=O)NCC(C)C)cs2)ccc1Cl,i,0.19
Cc1cc(C)c(S(=O)(=O)N2CCCN(c3nc4cccnc4s3)CC2)cc1C,i,0.48
CNC(=O)c1ccc(-c2nc(CN3CCN(C(=O)Nc4ccc(C)cc4)CC3)c(C)o2)cc1,i,-0.08

# Full records, looked up by structure. Screens in order: Anaer choline gr, Anaer choline gr early
# COc1cc(C2C3=C(CC(c4ccc(Cl)cc4)CC3=O)Nc3onc(C)c32)ccc1O (configuration not stated) as listed: i, -0.09
# CC(C)NC(=O)C1CCN(C(=O)c2nn(C)c3c2CN(C(=O)C(C)C)CC3)CC1 as listed: i, 0.08
# Cc1cccc(-n2nc(C(=O)N3CCCC3)nc2-c2ccccc2)c1 as listed: i, -1.82

# New compounds follow:
SMILES,Anaer choline gr,Anaer choline gr early
Cc1cc(N2CCCC2)n2nc(-c3ccccc3C)nc2n1,i,-1.39
CCC(C)NC(=O)Cn1c(=O)n(Cc2ccc(C(=O)NCCC(C)C)cc2)c(=O)c2cc(OC)c(OC)cc21 (configuration not stated),i,1.21
CCc1nc(-c2cc(S(=O)(=O)N3CCCC(C(=O)Nc4cccc(OC)c4)C3)c(C)s2)no1 (configuration not stated),i,-1.72
O=C(NCCc1c[nH]c2ccc(Cl)cc12)c1csc(-c2ccncc2)n1,i,0.31
COc1ccc(Br)cc1-c1nnc2n(C(C)C)c3c(=O)[nH]c(=O)n(C)c3n12,i,-1.05
O=C(NC1CC1)C1=CSCCO1,i,-0.25
O=C1CSC(c2ccc3cccc(O)c3n2)N1c1ccc(F)c(Cl)c1 (configuration not stated),i,1.6
CCOC(=O)Cn1cnc2nn(-c3ccccc3)cc2c1=O,i,0.61
COc1ccc(NC(=O)c2cnc(N(C)C)nc2C)cc1OC,i,-1.39
CCCn1cnc2cc(-c3noc(-c4sc(C)nc4C)n3)ccc21,i,0.34
O=C(Nc1ccc(-c2nc3ccccc3s2)c(Cl)c1)c1ccc2c(c1)OCCO2,i,1.32
CCCn1ccnc(N2CCCCC2)c1=O,i,-0.52
CCCCn1c(CN2CCCC2)nc2cc(NC(C)=O)ccc21,i,-0.41
Nc1nc(N2CCN(c3ccccn3)CC2)ncc1S(=O)(=O)c1ccccc1,i,1.46
O=C(c1cc2cc(Cl)ccc2[nH]1)N1CCN(S(=O)(=O)c2ccc3[nH]c(=O)sc3c2)CC1,i,-0.68
COc1cc(C2CC(=O)C3=C(C2)Nc2onc(C)c2C3c2ccc(Br)cc2)ccc1O (configuration not stated),i,-0.02
CC1CCN(C(=O)C2CCC(Cn3c(=O)c4sccc4n(CC(N)=O)c3=O)CC2)CC1 (configuration not stated),i,-1
O=C(CN1C(=O)C2CCCCN2c2ccc(C(=O)N3CCCC3)cc21)N1CCc2ccccc2C1 (configuration not stated),i,0.81
CCCCn1c(=O)c2sccc2n2c(SCc3ccccc3)nnc12,i,0.65
COc1cccc(NC(=O)CN2C(=O)C(C)(C)c3cc(S(=O)(=O)N4CCCC4)ccc32)c1,i,-0.01
c1cncc(-c2nnc3sc(-c4csc5c4CCCC5)nn23)c1,i,0.43
COc1cccc(NS(=O)(=O)c2cc(-c3nc(C)c(C(=O)N4CCCCC4)s3)n(C)c2C)c1,i,1.59
Cc1cc2nc(C(=O)Nc3ccc(F)cc3)c(=O)n(C)c2cc1C,i,-0.82
CCc1ccc(Nc2ccc3cc(S(=O)(=O)N4CCCCC4)ccc3n2)cc1,i,2.48
O=c1c2ccccc2n2c(=O)n(Cc3ccc(Cl)cc3)nc2n1Cc1ccccc1,i,0.2
CN1CCc2c(sc(NC(=O)CSc3ccccc3)c2-c2nc3ccccc3s2)C1,i,-0.99
Cc1ccc(NC(=O)NCc2ccnc(N3CCCCC3)c2)cc1C,i,0.38
Cc1nc2ncccc2c(=O)n1-c1cccc(NC(=O)c2cc(Br)ccc2Cl)c1,i,-0.75
CC(=O)[C@H]1CC[C@H]2[C@@H]3CCC4=CC(=O)CC[C@]4(C)[C@H]3CC[C@]12C,i,0.58&0.08&-0.25
CC(C)C(=O)Nc1ccc(N2CCCC2)cc1C(=O)O,i,-1.31
COc1cc2c(=O)n(Cc3ccc(C(=O)NC4CC4)cc3)c(=O)n(Cc3ccccc3F)c2cc1OC,i,0.81
Cc1c(C(=O)CN2CCN(C(=O)Nc3ccccc3Br)CC2)c2ccccc2n1C,i,-0.12
CCc1ccc(NC(=O)Nc2ccccc2OCc2cc(=O)n3c(ncn3C(C)C)n2)cc1,i,1.87
COc1ccc(NC(=O)Cn2c(=O)n(C)c(=O)c3cnn(-c4ccccc4)c32)cc1OC,i,0.38
COC(=O)C1=C(c2ccccc2)c2ccccc2S(=O)(=O)N1CC(=O)Nc1ccc(C)cc1C,i,0.68
COc1ccc(-c2cc(C(F)(F)F)n3nc(C(=O)Nc4cccc(O)c4)cc3n2)cc1,i,-0.29
CCC(C(=O)Nc1cc(F)ccc1F)S(=O)(=O)c1ccc2c(c1)S(=O)(=O)N=CN2 (configuration not stated),i,0.96
CCOCCOC(=O)c1cc2c(C)nn(-c3ccc(F)cc3)c2s1,i,1.61
O=c1[nH]ccn(-c2ccc(O)cc2)c1=O,i,0.62
CCc1ccc2c(c1)[C@H]1OCCC[C@H]1C(c1ccncc1)N2 (some centres not stated),i,-0.3

# Pulled one by one from the list above (4):
SMILES,Anaer choline gr,Anaer choline gr early
COc1ccc(NC(=O)c2ccnc(Nc3ccc(C(C)C)cc3)c2)cc1,i,-0.54
CCCCn1c(=O)c2sccc2n2c(SCc3ccccc3)nnc12,i,0.65
CCCCn1c(CN2CCCC2)nc2cc(NC(C)=O)ccc21,i,-0.41
O=C(CN1CCN(Cc2ccc(F)cc2Cl)S1(=O)=O)NC1CCCC1,i,-0.47

# Next records
SMILES,Anaer choline gr,Anaer choline gr early
Cc1sc(-c2cc(C(F)(F)F)on2)cc1S(=O)(=O)N1CCCC1,i,-0.34
COC(=O)c1sccc1NC(=O)C1CCN(c2ccc(=O)n(-c3ccc(F)cc3)n2)CC1,i,0.89
O=C(Cc1ccc(Cl)cc1)NCCc1csc2nc(-c3cccc(F)c3)nn12,i,-0.96
O=C(CCCc1nc(-c2ccccc2)no1)Nc1nc(-c2ccccc2)cs1,i,0.14
O=C1COc2ccc(C(=O)N3CCc4ccccc43)cc2N1,i,-0.9
O=C(C1CCN(c2cncnc2N2CCOCC2)CC1)N1CCN(C2CCCCC2)CC1,i,0.17
CCN1CCN(c2cc(C(=O)O)c3cc(NS(=O)(=O)c4c(C)cc(C)cc4C)ccc3n2)CC1,i,0.11
Cc1cccc(C2C3=C(CC(c4ccccc4)CC3=O)Nc3onc(C)c32)c1 (configuration not stated),i,1.45
O=C(NC1CCCC1)c1ccc2c(c1)OCCCO2,i,-1.54
O=C(Cn1nc2n(CCc3ccccc3)c(=O)c3ccccc3n2c1=O)NCc1ccccc1,i,1.17
CCc1onc(C)c1C1CCCN1C(=O)Nc1ccc2c(c1)OCO2 (configuration not stated),i,-0.14
O=c1c2c(-c3ccccc3)csc2ncn1C1CCCCC1,i,0.69
O=S(=O)(c1ccc(-c2nnc(C3CCC3)o2)o1)N1CCN(C2CCCCC2)CC1,i,0.84
Clc1ccc(Cl)c(-c2ccc(CNCc3cccnc3)o2)c1,i,-1.3
COc1cc(CNCC(C)C)ccc1OCc1ccc2c(c1)n(C)c(=O)n2C,i,0.18
O=C(Cc1nnc(NC(=O)Nc2ccc(Cl)cc2)s1)NCc1ccccc1,i,1.23
O=S(=O)(Cc1ccccc1)NCc1cccn1Cc1ccccc1F,i,0.47
CCCCNC(=O)c1nnn(-c2ccc(C)cc2)c1-c1cccnc1,i,-0.36
O=C(Cn1ncc(-c2ccccc2)nc1=O)Nc1c(F)cccc1F,i,0.76
O=C(NCc1nc2cccnc2n1Cc1ccc(F)cc1)c1ccc2c(c1)OCO2,i,-0.36
CN(CC(=O)Nc1ccc(Cl)cc1)S(=O)(=O)c1cc2c(cc1Cl)NC(=O)CO2,i,0.04
CC1CCN(C(=O)C2CC(c3ccc(F)cc3)=NO2)CC1 (configuration not stated),i,-2.48
Cc1ccc(-c2nc3sccn3c2Nc2ccccc2C)cc1,i,0.21
Cc1cc2c(cc1C(N)=O)OCCCO2,i,-1.29
CNC(=O)c1cc(C2CC2)[nH]n1,i,0.1
Cc1ccc2c(c1)NC(C(=O)Nc1ccc(Br)c(C)c1)NS2(=O)=O (configuration not stated),i,-0.4
CC1CCC2(CC1)Nc1ccccc1NC2=NCc1ccc(F)c(Cl)c1 (configuration not stated),i,0.31
CCCCCNC1=C(c2cn(C)c3ccccc23)C(=O)N(C)C1=O,i,-0.05
Cc1noc(Cn2c(=O)c3ccccc3n(CC(=O)NCc3ccccc3)c2=O)n1,i,1.11
Cc1cc2c(cc1S(=O)(=O)N1CCCCC1)OCC(=O)N2Cc1noc(C2CC2)n1,i,-0.2
Cc1c(NS(=O)(=O)c2ccc(Br)cc2)c(-n2cnnc2)nn1C,i,0.49
O=C1CC(c2cn(Cc3ccccc3)c3ccccc23)C(=O)N1c1ccc(O)cc1 (configuration not stated),i,0.24
O=C(NCCn1c(C(F)(F)F)nc2cccnc21)C1CCCCC1,i,0.25
O=C(Nc1ccccc1F)C1CCC(=O)N1S(=O)(=O)c1ccc(F)cc1 (configuration not stated),i,0.19
Cc1c(C)c(C)c(C(=O)CC2(O)C(=O)Nc3ccccc32)c(C)c1C (configuration not stated),i,-0.2
O=C1COc2ccc(C(=O)NCC3CCCO3)cc2N1 (configuration not stated),i,-0.41
O=C(c1ccncc1)c1c[nH]c2ccc(F)cc2c1=O,i,-0.6
O=S(=O)(c1cc(F)ccc1F)N1CCCN(c2nc3cccnc3s2)CC1,i,0.76
O=S(=O)(c1ccccc1)N1CCC2(CC1)NCCN=C2NCc1ccccc1Cl,i,-0.48
O=C(Nc1ccc(N2CCN(C3CCCCC3)CC2)cc1C(=O)O)c1ccccc1Cl,i,0.03

# 3 compounds out of the list above, sorted by their value in Anaer choline gr early, rising.
SMILES,Anaer choline gr,Anaer choline gr early
O=C(c1ccncc1)c1c[nH]c2ccc(F)cc2c1=O,i,-0.6
Cc1c(C)c(C)c(C(=O)CC2(O)C(=O)Nc3ccccc32)c(C)c1C (configuration not stated),i,-0.2
O=C(Nc1ccccc1F)C1CCC(=O)N1S(=O)(=O)c1ccc(F)cc1 (configuration not stated),i,0.19

# Carrying on.
SMILES,Anaer choline gr,Anaer choline gr early
O=C(NC1CCN(C(=O)C2CCC2)C1)C1CCC1 (configuration not stated),i,0.05
O=C(CN1C(=O)CCCc2ccccc21)NCc1cccnc1,i,0.4
CCCNC(=O)c1cnc2sccn2c1=O,i,-0.06
COc1ccccc1-c1nn2c(-c3cccnc3)nnc2s1,i,-0.31
Cc1csc(-c2cc(S(=O)(=O)N3CCCc4ccccc43)c(C)s2)n1,i,1.76
CCSc1nn(C)c2nc3c(c(=O)n12)C(C)(C)Cc1ccccc1-3,i,0.34
Cc1ccc(-c2nc(CN3CCCC(C(=O)Nc4cccc(C)c4)C3)no2)cc1 (configuration not stated),i,0.96
COc1ccc(N2CCCCn3c2nc2c3c(=O)[nH]c(=O)n2C)cc1,i,-2.16
O=C(NC1CC1)C1CCCCN1S(=O)(=O)c1ccc(F)cc1 (configuration not stated),i,-0.53
Cc1nn(CC(=O)NCCc2c[nH]c3ccccc23)c(=O)c2noc(C)c12,i,-0.02
O=C(CN1CCN(C(=O)Nc2ccccc2)CC1=O)NCc1ccccc1,i,-0.38
CCCc1nc2c(c(=O)n1CC(=O)NC(C)(C)C)CCN(Cc1ccccc1)C2,i,-0.47
O=C(NC1CC1)c1nc(-n2cnnc2)ccc1Br,i,0.42
CCOC(=O)Cc1ccc(NC(=O)N2CC(CC)Oc3ccc(C)cc32)cc1 (configuration not stated),i,0.83

# Assay outcomes from PubChem.

# Some of the compounds tested; rates above refer to the full screens.
